Eya2 inh = inhibitors of human Eya2 phosphatase activity; recombinant Eya2, OMFP fluorescence dephosphorylation (OMFP is methylfluorescein phosphate); O00167; Potency, µM (titrated, usually from 76.9 µM), for the others: at the top dose activity, negative = inhibition, hits mostly inhibitors; 0.006% of 330,000 active; also: potency is read from the fitted curve at half-maximal effect; % is scaled to controls: 0 for no effect and ±100 for the full control effect
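Eya2 (0.2 uM) preincubated 10 min at ambient with compound, then OMFP substrate added at 50 uM; 10 min reaction in 50 mM HEPES pH 7.5, 50 mM NaCl, 5 uM MgCl2, 0.05% BSA, 1 mM DTT. Fluorescence read at Ex 485/Em 525 nm.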
Mito fusion act = blocks mitochondrial division or promotes mitochondrial fusion | S. cerevisiae fusion-defective mutant growth rescue, CellTiterGlo 48 h | Potency, µM (top dose mostly 46.1 µM), for the others: at the highest dose growth rescue (activation), actives largely listed as activators | 0.23% of 320,000 active | AID 485298;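 also: potency is read from the fitted curve at half-maximal effect; % of control where 0% means no effect; nearly all actives have a fitted effect of over 45% in size; temperature-sensitive fusion mutants such as fzo1-1 at 37 °C on non-fermentable ethanol glycerol medium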
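Temperature-sensitive fusion-defective S. cerevisiae (e.g. fzo1-1, mgm1-5) were grown with compound in YPEG medium (3% ethanol, 3% glycerol) for 48 hours at 37C. Growth rescue was measured as viability by CellTiterGlo luminescence after 10 minutes at ambient.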
Chronic BCR inh = blocks chronic active B-cell receptor signaling. AID 493014. ABC-DLBCL IkBa-CBG/CBR reporter, luminescence ratio, 4 h. Potency, µM (highest dose often 46.1 µM), for the others: at the highest dose ratio change, negative = lower green/red ratio, actives largely listed as inhibitors. 0.05% of 340,000 active; active = well fitted inhibition curve with a large enough effect in the signal ratio, with a control signal flat, not every such curve was filed as active; inconclusive = small, poorly fitted or top-dose-only effect, or effect the other way, or a change in a side signal; the % refers to the signal ratio;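 also: potency is read from the fitted curve at half-maximal effect; plate controls were basal doxycycline-induced cells for no effect and cells given 10 µM MG132 for full effect; MG132 reads +100%, hits lower the ratio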
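Compounds up to 46 uM were incubated four hours with TMD8 cells whose green CBG68 luciferase is fused to IkappaBalpha; red CBR luminescence normalised the signal, and concentration-effect curves were fitted to fusion, red and ratio data.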
Menin-MLL TR inh = displaces Texas Red mutant MLL peptide from human menin; O00255; Menin + Texas Red MLL mutant peptide, fluorescence polarization; Potency, µM (doses to about 61.6 µM), inactives show top-dose FP activity change, negative = inhibition, most hits filed as inhibitors; 0.23% of 270,000 active; AID 1768; active = well fitted inhibition curve with a large enough effect in the polarisation, with a control signal flat, not every such curve was filed as active; inconclusive = small, poorly fitted or top-dose-only effect, or effect the other way, or a change in a side signal; inactive = no such curve, though single readings can be large or run the other way; the % refers to the polarisation; also: potency is read from the fitted curve at half-maximal effect; % of control where 0% means no effect; many of its hits are not listed in these tables
MBNL1 CUG block = inhibitors of human MBNL1 binding to CUG repeat RNA | Potency, µM (highest dose often 57.5 µM), without a hit: top-dose activity change, negative = inhibition, most hits filed as inhibitors | TR-FRET MBNL1-His/biotin-(CUG)12 binding, 665/545 ratio | Q9NR56 | 0.036% of 280,000 active; active = well fitted inhibition curve with a large enough effect in the signal ratio, with a control signal flat, not every such curve was filed as active; inconclusive = small, poorly fitted or top-dose-only effect, or effect the other way, or a change in a side signal; inactive = no such curve, though single readings can be large or run the other way; the % refers to the signal ratio; also: potency is read from the fitted curve at half-maximal effect; % is scaled to controls: 0 for no effect and ±100 for the full control effect
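Compounds (final 92 nM to 58 uM) are added to His-tagged MBNL1 and biotin-(CUG)12, then terbium anti-His antibody and streptavidin-XL665 (5 nM final). After 60 min at room temperature, the 665/545 nm ratio is read.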
TSHR antagonist = antagonists of human thyroid stimulating hormone receptor; TSHR-expressing cells, TSH-stimulated cAMP HTRF, 2 h; stronger effect = lower value; activity change, negative = inhibition, % at 11.5 µM; AID 504810; 0.2% of 330,000 active;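 active = activity change below a set negative limit, meaning inhibition stronger than a set level, cut at about -70% in these data; inconclusive = activity change between two set negative limits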; also: % is scaled to controls: 0 for no effect and ±100 for the full control effect
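Inhibition of cAMP made by TSHR-expressing cells under TSH stimulation (4nM final, EC80; 2 h, 37 deg C) is quantified with a one-step lysis HTRF kit, anti-cAMP cryptate versus cAMP-d2.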
USP2a block = USP2a (human) protease inhibition. O75604. USP2 core, Ub-CHOP2 coupled fluorogenic reporter, 485/531. Potency, µM (highest dose often 38.3 µM), for inactives: top-dose activity change, negative = inhibition, usual class: inhibitors. 0.01% of 330,000 active. AID 463254;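 also: potency is read from the fitted curve at half-maximal effect; plate controls were DMSO wells for no effect and full inhibition by NEM control for full effect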
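USP2 core (10nM final) preincubated 30min RT with compound in 20mM Tris-HCl pH 8.0, 2mM CaCl2, 2mM beta-mercaptoethanol, 0.05% CHAPS; 25nM Ub-CHOP2 plus 25nM reporter substrate added, fluorescence (Ex485/Em531) read after 60min.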
KCNH2 WT inh = KCNH2 (human, wildtype) channel inhibition; Q12809; U2OS, BacMam KCNH2, thallium flux FluxOr; stronger effect = lower value; activity change, % at 1.84 µM; 0.37% of 340,000 active; AID 720551;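 active = maximum activity change below -70%; inconclusive = maximum activity change between -70% and -50%; inactive = maximum activity change above -50%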; also: % is scaled to controls: 0 for no effect and ±100 for the full control effect
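U2OS cells were transduced with wild-type KCNH2 virus (2.03 x 10^8 / mL) for 4 h at room temperature, then cultured overnight at 37 C. Thallium flux was read with FluxOr dye. Rate constants were normalized to DMSO controls.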
GALK inh = inhibitors of human galactokinase. 0.007% of 270,000 active. Potency, µM (doses to about 57.5 µM), for the others: at the top dose activity change, negative = inhibition, actives largely listed as inhibitors. P51570. Purified GALK, Kinase-Glo residual ATP luminescence; also: potency is read from the fitted curve at half-maximal effect; % is scaled to controls: 0 for no effect and ±100 for the full control effect
Target sequence (P51570 whole entry, looked up): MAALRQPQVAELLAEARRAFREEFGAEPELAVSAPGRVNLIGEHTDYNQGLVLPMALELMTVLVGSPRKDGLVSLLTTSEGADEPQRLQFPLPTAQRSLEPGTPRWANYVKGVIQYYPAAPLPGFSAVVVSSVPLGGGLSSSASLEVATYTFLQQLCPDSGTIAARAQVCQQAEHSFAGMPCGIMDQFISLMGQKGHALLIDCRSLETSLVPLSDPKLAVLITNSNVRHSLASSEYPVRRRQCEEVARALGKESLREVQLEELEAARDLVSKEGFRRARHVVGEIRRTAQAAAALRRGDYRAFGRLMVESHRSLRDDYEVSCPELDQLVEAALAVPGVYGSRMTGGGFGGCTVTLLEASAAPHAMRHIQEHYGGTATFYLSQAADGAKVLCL
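Quantitative HTS: GALK 5 nM, ATP 35 uM, galactose 100 uM, 1 h room temperature, then luciferase-based ATP detection.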
ASM inhibitor = inhibitors of human secretory acid sphingomyelinase; P17405; placental ASM, HMU-PC fluorogenic substrate, 60 min; Potency, µM (doses to about 57.5 µM), for inactives: top-dose activity change, negative = inhibition, usual class: inhibitors; 0.006% of 340,000 active; also: potency is read from the fitted curve at half-maximal effect
Target sequence (P17405 47-631 limits assumed): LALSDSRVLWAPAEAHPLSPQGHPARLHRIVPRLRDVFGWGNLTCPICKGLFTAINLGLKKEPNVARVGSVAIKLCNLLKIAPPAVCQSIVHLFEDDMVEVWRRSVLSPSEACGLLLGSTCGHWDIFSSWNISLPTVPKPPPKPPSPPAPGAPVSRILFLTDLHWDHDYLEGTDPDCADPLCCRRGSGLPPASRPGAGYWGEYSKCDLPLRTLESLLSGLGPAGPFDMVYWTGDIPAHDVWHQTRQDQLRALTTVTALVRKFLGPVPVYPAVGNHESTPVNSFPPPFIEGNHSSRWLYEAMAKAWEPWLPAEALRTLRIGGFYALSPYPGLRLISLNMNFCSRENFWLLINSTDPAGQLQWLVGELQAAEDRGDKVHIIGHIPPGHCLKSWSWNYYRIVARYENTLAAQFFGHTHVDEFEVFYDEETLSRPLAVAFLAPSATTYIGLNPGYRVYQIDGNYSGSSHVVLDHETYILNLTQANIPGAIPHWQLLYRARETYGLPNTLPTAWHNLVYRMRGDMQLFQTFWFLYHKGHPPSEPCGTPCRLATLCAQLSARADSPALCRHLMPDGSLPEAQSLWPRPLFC
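HMU-PC0 cleavage (9 uM final) by human placental ASM, 60 min at 37 °C following 10 min compound exposure at RT; stopped at pH 10, fluorescence Ex 386/Em 447 nm.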
The depositor's hits bear a star; ? = inconclusive; / = not tested or not shown; [ ] = another dose, or the depositor's remark. Unless noted, calls follow the shape of the dose curve; as a rule, active = well fitted curve in the direction sought with a large enough effect; inconclusive = small, poorly fitted or top-dose-only effect, or another doubt; inactive = no such curve, though single readings can be large; an effect the other way counts as inactive or inconclusive.

no.	Compound	Eya2 inh	Mito fusion act	Chronic BCR inh	Menin-MLL TR inh	MBNL1 CUG block
1	COC(=O)/C=C1/SC(=Nc2ccc(C)cc2C)NC1=O	4%	-1%	-1%	5%	8%
2	Cc1cccc(N2CCN(C(=O)c3cc(S(=O)(=O)N4CCOCC4)cn3C)CC2C)c1 (stereo not drawn)	9%	-9%	1%	-9%	2%
3	COc1ccc(CNC(=O)c2cc(C)nn2-c2ccccc2)cc1	1%	1%	12%	/	2%
4	O=C(NCc1ccccn1)C(=O)C1C(=O)Nc2ccccc21 (stereo not drawn)	19%	-1%	-1%	2%	-5%
5	CC1(C)CC(CC(=O)Nc2nccs2)(c2ccccc2)CCO1 (stereo not drawn)	7%	-11%	?	16%	-2%
6	O=C(CCCN1C(=O)c2ccccc2C1=O)Nc1ccc(S(=O)(=O)N2CCCCC2)cc1	7%	4%	19%	/	12%
7	CSc1ccccc1NC(=O)Cn1nnc(-c2ccc(S(C)(=O)=O)cc2)n1	4%	-3%	8%	19%	-5%
8	O=C1CCCc2ccccc2N1Cc1cccc(F)c1	2%	-1%	1%	?	-6%
9	CCCNS(=O)(=O)c1ccc(CCC(=O)NCCc2ccc(OC)c(OC)c2)cc1	-13%	-1%	4%	-16%	7%
10	CCN1CCN(C(CC(C)C)c2nnnn2CS(=O)(=O)c2ccc(C)cc2)CC1 (stereo not drawn)	0%	-20%	-4%	-5%	-2%
11	Cc1ccn2cc(CCNS(=O)(=O)c3ccc4c(c3)OCCO4)nc2c1	18%	-2%	-6%	-5%	-4%
12	CC(C)C(NC(=O)c1ccccc1)C(=O)N1CCCCCC1 (stereo not drawn)	-3%	9%	1%	4%	4%
13	COCCNC(=O)Cn1c(=O)n(C)c2ccccc21	6%	0%	-1%	-1%	6%
14	Cc1ccc(C(=O)OCC(=O)NCc2cccs2)cc1	7%	0%	0%	-11%	-11%
15	Cc1ccccc1N(C(=O)c1csnn1)C(C(=O)NC(C)(C)C)c1ccncc1 (stereo not drawn)	-4%	-3%	?	-12%	-3%

no.	TSHR antagonist	USP2a block	KCNH2 WT inh	GALK inh	ASM inhibitor
1	-15	-7%	-2	0%	-10%
2	11	-1%	-1	6%	-3%
3	1	2%	-3	-1%	3%
4	15	7%	6	1%	4%
5	31	-1%	-4	-2%	0%
6	-6	-1%	2	-1%	-3%
7	12	0%	1	7%	-2%
8	3	-3%	4	1%	-4%
9	-11	1%	-13	-1%	-3%
10	5	1%	3	-2%	-3%
11	4	3%	2	3%	-2%
12	2	-1%	-11	6%	0%
13	0	3%	-1	0%	7%
14	3	5%	2	-1%	-4%
15	-2	0%	-45	0%	0%

More entries.
no.	Compound	Eya2 inh	Mito fusion act	Chronic BCR inh	Menin-MLL TR inh	MBNL1 CUG block
16	O=C(CSc1nnc(Nc2ccccc2F)s1)Nc1cccc(S(=O)(=O)N2CCCCC2)c1	-2%	-3%	?	-19%	/
17	O=C(N/N=C/c1ccccn1)c1cc(C2CC2)[nH]n1	4%	-4%	?	6%	9%
18	CCOC(=O)c1cc(NC(=O)c2ccc(Cl)cc2)c(=O)n2c1oc1ccc(Cl)cc12	-1%	-4%	6%	0%	4%
19	CC1CCN(C(=O)CSc2n[nH]c(-c3cccs3)n2)CC1	-9%	0%	4%	14%	-1%
20	Cc1cc(N2C(=O)C3CC=CC(C)C3C2=O)no1 (stereo not drawn)	-6%	2%	-7%	?	-17%
21	Cc1cc(=O)oc2cc(OCC(=O)c3ccccc3)ccc12	-1%	-3%	7%	-7%	-4%
22	COc1c(Cl)cc(Cl)cc1C(=O)Nc1ccc(C(=O)O)cc1	3%	?	?	-3%	10%[11.5 µM]
23	O=C(NCc1ccc(OC(F)(F)F)cc1)C1CC(c2cccc(F)c2)=NO1 (stereo not drawn)	-2%	0%	-5%	/	-6%
24	CCOC(=O)N1CCN(C(=O)CNC(=O)c2nn(-c3ccc(OC)cc3)c(=O)c3ccccc23)CC1	-33%	-1%	-1%	?	36%[activator]
25	CCN(CC)CCC(c1ccc2c(c1)OCO2)c1c(OC)cc(OC)c2ccc(=O)oc12 (stereo not drawn)	-6%	-10%	-4%	/	-6%
26	CCOC(=O)c1ccc(NC(=O)C(=O)NCc2ccc(/C=C(/C#N)C(=O)NCCOC)o2)cc1	5%	-6%	5%	31%[activator]	-6%
27	CN1C(=S)N(c2ccccc2)C(=O)/C1=C/c1ccco1	0%	4%	4%	?	15%
28	CC1=C(C(=O)Nc2nc3ccccc3s2)C(c2ccco2)C(C#N)=C(SCC(=O)NC2CCCCC2)N1 (stereo not drawn)	3%	5%	2%	?	?
29	O=C(/C=C/c1ccc(Br)o1)NCc1ccccc1	-19%	1%	-1%	?	12%
30	Cc1ccc(C(=O)NC(=S)Nc2ccc3[nH]c(=O)[nH]c3c2)cc1	-2%	-8%	0%	-6%	?

no.	TSHR antagonist	USP2a block	KCNH2 WT inh	GALK inh	ASM inhibitor
16	-19	1%	-11	1%	-11%
17	6	1%	15	9%	1%
18	4	2%	3	0%	44%[activator]
19	-2	-1%	5	-1%	-4%
20	6	-2%	-4	0%	0%
21	6	0%	1	2%	46%[activator]
22	2	-3%	28	/	10%
23	-5	0%	23	0%	1%
24	-9	2%	8	-2%	-2%
25	-8	0%	4	1%	17%
26	17	7%	14	-2%	-2%
27	-2	5%	8	-4%	-2%
28	-16	1%	10	1%	411%[activator]
29	-3	4%	-5	1%	0%
30	8	4%	11	-1%	-1%

(more compounds)
no.	Compound	Eya2 inh	Mito fusion act	Chronic BCR inh	Menin-MLL TR inh	MBNL1 CUG block
31	Fc1ccc(-c2onc3ccc(C4OCCO4)cc23)cc1	10%	-4%	-5%	9%	5%
32	Cc1nnc2ccc(-c3cccc(NC(=O)c4ccc(Cl)nc4)c3)nn12	-5%	-9%	-3%	-24%	24%
33	COCc1c(C(=O)N/N=C(/C)c2ccccc2)nnn1-c1nonc1N	5%	-6%	2%	4%	-3%
34	O=C(c1ccco1)N1CCN(C(=O)C23CC4CC(CC(C4)C2)C3)CC1	-3%	-1%	5%	-2%	-8%
35	O=c1c(Cl)c(N2CCCCC2)cnn1-c1nc2ccccc2[nH]1	8%	-6%	?	-12%	?
36	COC(=O)c1ccc(S(=O)(=O)NCc2ccco2)n1C	2%	-1%	2%	/	-2%
37	COc1ccccc1C1C(C(C)=O)=C(C)N=c2s/c(=C\c3cc(OC)c(OC)c(OC)c3)c(=O)n21 (stereo not drawn)	-24%	0%	0%	2%	0%
38	N#CCc1ccc(NC(=O)Cn2c(=O)oc3ccccc32)cc1	10%	2%	0%	0%	-5%

no.	TSHR antagonist	USP2a block	KCNH2 WT inh	GALK inh	ASM inhibitor
31	2	9%	14	4%	9%
32	-3	4%	7	1%	-6%
33	-11	-1%	-14	-1%	-1%
34	2	2%	-7	6%	/
35	9	-1%	1	11%	0%
36	-1	-2%	1	7%	0%
37	9	4%	-10	-1%	-24%
38	-8	2%	-7	-1%	0%

Entries of single compounds from above. Values in the order: Eya2 inh	Mito fusion act	Chronic BCR inh	Menin-MLL TR inh	MBNL1 CUG block	TSHR antagonist	USP2a block	KCNH2 WT inh	GALK inh	ASM inhibitor
COC(=O)/C=C1/SC(=Nc2ccc(C)cc2C)NC1=O is listed with 4%	-1%	-1%	5%	8%	-15	-7%	-2	0%	-10%
CC(C)C(NC(=O)c1ccccc1)C(=O)N1CCCCCC1 (stereo not drawn) is listed with -3%	9%	1%	4%	4%	2	-1%	-11	6%	0%
COc1c(Cl)cc(Cl)cc1C(=O)Nc1ccc(C(=O)O)cc1 is listed with 3%	?	?	-3%	10%[11.5 µM]	2	-3%	28	/	10%

This is a subset, so the mix of outcomes need not match the whole.
